Bioassay records from PubChem BioAssay.
Cruzain inh noDet – blocks cruzain activity in detergent-free assay; P25779; purified cruzain, Z-FR-AMC fluorescence, no detergent; Potency, µM, for the others: max response, negative = inhibition, usual class: inhibitors; actives 2.3% (n = 200,000); active means well fitted curve in the direction sought with a large enough effect; inconclusive means small, poorly fitted or top-dose-only effect, or another doubt; inactive means no such curve, though single readings can be large; an effect the other way counts as inactive or inconclusive;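 further: plate controls were enzyme without inhibitor for no effect and buffer without enzyme for full effect; nearly all actives have a fitted effect of over 40% in size; top concentration of the series not given in the record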
Target sequence (P25779 123-467 limits assumed): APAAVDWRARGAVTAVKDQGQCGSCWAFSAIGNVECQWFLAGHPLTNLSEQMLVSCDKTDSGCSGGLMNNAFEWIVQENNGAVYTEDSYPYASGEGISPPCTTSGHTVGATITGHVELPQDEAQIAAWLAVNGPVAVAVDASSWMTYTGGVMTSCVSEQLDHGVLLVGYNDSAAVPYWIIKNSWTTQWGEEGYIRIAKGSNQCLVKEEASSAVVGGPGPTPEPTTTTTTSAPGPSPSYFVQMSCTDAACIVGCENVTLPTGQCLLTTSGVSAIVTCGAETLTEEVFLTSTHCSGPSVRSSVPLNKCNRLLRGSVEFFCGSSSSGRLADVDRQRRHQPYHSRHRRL
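Detergent-free condition (0.00005% Triton X-100) in acetate buffer pH 5.5 with DTT. 1.5 nM enzyme and compound were pre-mixed 15 min, then 2 uM Z-FR-AMC substrate added; reaction progress from fluorescence change between first and third reads (60 s).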
Marburg entry inh – blocks Marburg virus binding to or entry into cells; AID 540276; actives 1.8% (n = 300,000); Potency, µM (highest dose often 37.8 µM), for inactives: at the highest dose activity change, negative = inhibition, usual class: inhibitors; Marburg virus pseudotyped entry inhibition, cell reporter; control for the full effect not named in the record; about a third of the inactives were read at about 46 µM; active = well fitted inhibition curve with a large enough effect; inconclusive = small, poorly fitted or top-dose-only effect, or effect the other way; inactive = flat fitted curve, though single readings scatter; tested in HEK293 cells; about a fifth of its hits are not listed in these tables; further: on the % scale 0 is the no-effect control and ±100 the full control effect; luciferase read-out
Cruzain Triton – blocks cruzain activity in presence of Triton detergent | P25779 | purified cruzain, Z-FR-AMC fluorescence, 0.01% Triton | Potency, µM, without a hit: max response, negative = inhibition, most hits filed as inhibitors | actives 0.43% (n = 200,000) | AID 1478; active means well fitted curve in the direction sought with a large enough effect; inconclusive means small, poorly fitted or top-dose-only effect, or another doubt; inactive means no such curve, though single readings can be large; an effect the other way counts as inactive or inconclusive;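 further: plate controls were neutral wells for no effect and buffer without enzyme for full effect; nearly all actives have a fitted effect of over 40% in size; top concentration of the series not given in the record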
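Read-out: AMC fluorescence (360 nm excitation, 450 nm emission), four reads over 2 min, first-to-third difference used. Conditions: cruzain 1.5 nM, Z-FR-AMC 2 uM, pH 5.5 acetate, 5 mM DTT, 0.01% Triton X-100.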
RE007 growth inh – less growth of the S. pombe RE007 Vpr strain; Potency, µM (titrated, usually from 92.2 µM), for inactives: at the highest dose activity change, negative = less growth; actives 0.21% (n = 360,000); AID 651644; S. pombe RE007 Vpr strain, BacTiter-Glo ATP luminescence, 24 h; control for the full effect not named in the record; active = well fitted falling curve with a large enough effect; inconclusive = small, poorly fitted or top-dose-only effect; inactive = no such curve, though single readings can be large or run the other way;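 further: on the % scale 0 is the no-effect control and ±100 the full control effect; nearly all actives have a fitted effect of over 50% in size; the assay follows cell death caused by Vpr and the record does not say whether a fall means rescue or toxicity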
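Fission yeast RE007 carrying one integrated HIV-1 vpr copy, seeded at OD 0.01 in PMG+AL medium with 23 nL pinned compound. Grown 24 h at 30 degrees; viability read by BacTiter-Glo luminescence after 5 min.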
SARS PLpro yeast – inhibitors of SARS-CoV papain-like protease in yeast; Potency, µM (titrated, usually from 32.9 µM), for the others: top-dose activity, positive = growth rescue; S. cerevisiae expressing SARS-CoV PLpro, growth rescue; control for the full effect not named in the record; actives 0.19% (n = 330,000); further: 0% is about no effect; nearly all actives have a fitted effect of over 55% in size; growth read by luminescence after 48 h
Lassa entry inh – inhibitors of Lassa virus binding or cell entry | Lassa virus pseudotype entry inhibition, cell reporter; control for the full effect not named in the record | Potency, µM (doses to about 37.9 µM), without a hit: at the highest dose activity change, negative = inhibition, hits mostly inhibitors | actives 1.2% (n = 300,000) | AID 540256; active means well fitted inhibition curve with a large enough effect; inconclusive means small, poorly fitted or top-dose-only effect, or effect the other way; inactive means flat fitted curve, though single readings scatter; tested in HEK293 cells; further: on the % scale 0 is the no-effect control and ±100 the full control effect; nearly all actives have a fitted effect of over 50% in size; luciferase read-out
2A StopGo – FMDV 2A StopGo reporter, luciferase signal; Potency, µM (titrated, usually from 57.9 µM), without a hit: at the top dose signal change, negative = less light; actives 1.2% (n = 410,000); AID 1159524; human cells with a luciferase reporter of 2A StopGo recoding; control for the full effect not named in the record; active = well fitted falling curve with a large enough effect; inconclusive = small, poorly fitted or top-dose-only effect; inactive = no such curve, though single readings can be large or run the other way; tested in HEK293T cells; further: on the % scale 0 is the no-effect control and ±100 the full control effect; nearly all actives have a fitted effect of over 45% in size; luciferase light after 4 h
NS1 function inh – influenza NS1 inhibition. S. cerevisiae slowed by influenza A NS1, growth recovery by OD600. Potency, µM (top dose mostly 46.1 µM), for inactives: at the top dose activity, positive = more growth. actives 0.4% (n = 270,000); further: actives are rising curves; nearly all actives have a fitted effect of over 50% in size
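Growth recovery, yeast-based: influenza A NS1 expressed in S. cerevisiae causes slow growth, and suppressors are detected by OD600. The parent strain without NS1 is used as positive control.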
The depositor's hits bear a star; ? = inconclusive; nt = not tested or not shown; & = joins results of further samples; [ ] = remark or other dose. Unless noted, the call rests on the fitted dose curve; in most records, active means well fitted rising curve with a large enough effect; inconclusive means small, poorly fitted or top-dose-only effect; inactive means no such curve, though single readings can be large or run the other way. Potency means the concentration at half of the fitted maximal effect.

SMILES	Cruzain inh noDet	Marburg entry inh	Cruzain Triton	RE007 growth inh	SARS PLpro yeast	Lassa entry inh	2A StopGo	NS1 function inh
CCc1ccc(-n2c(=S)sc3c(=O)n(-c4ccccc4OC)c(=S)[nH]c32)cc1	nt	?	nt	4%	2%	12%	-5%	nt
O=C(c1ccc(CNS(=O)(=O)c2ccccc2)cc1)N1CCN(Cc2ccccc2)CC1	8%	?	2.0%	-8%	5%	?	?	-8%
O=C(c1c[nH]c(=O)n(-c2ccccc2)c1=O)N1CCc2ccccc21	3%	-5%	2.2%	1%	-16%	-3%	-2%	?
FC(F)Sc1ccc(Nc2ncnc3nc[nH]c23)cc1	13%	-7%	-4.6%	-16%	17%	59%[14.3 µM]	49%[activator]	6%
CC[C@H](C)[C@H](NC(=O)c1ccccc1)C(=O)Nc1ccc(S(=O)(=O)Nc2cc(C)nc(C)n2)cc1	nt	nt	nt	2%	0%	nt	60%[activator]	-3%
C/C(=N/NC(=O)c1cc(-c2ccc(Br)s2)[nH]n1)c1ccco1	nt	-11%[46.1 µM]	nt	48%	-1%	?	30%	7%
Cc1ccc(NC(=O)CSc2ncnc3ccccc23)cc1S(=O)(=O)N1CCOCC1	nt	?	nt	18%	0%	?	?	2%
Cc1cc(C)n(-c2cc(O)c(-n3nc(C)cc3C)cc2O)n1	nt	?	nt	5%	0%	?	7%	2%
Cn1cc(S(=O)(=O)NCc2cccs2)c(=O)n(C)c1=O	-1%	nt	5.6%	-4%	4%	nt	-5%	-31%
CC(C)(C)C(=O)/C(C#N)=c1\s/c(=C\c2ccncc2)c(=O)n1CCCN1CCOCC1	-1%	1%	-4.1%	nt	3%	nt	nt	1%
O=C(c1cc(F)ccc1F)C1CCCN(CCCc2ccccc2)C1 (stereo not given)	nt	2%[46.1 µM]	nt	2%	-1%	-8%	-9%	-4%
COc1ccc(/C=N/Nc2ncc(Br)cn2)c(OC)c1	nt	?	nt	3%	0%	?	59%[activator]	3%
CS(=O)(=O)c1ncc(Cl)c(C(=O)Nc2ccc(OC(F)F)cc2)n1	nt	?	nt	-15%	-13%	?	20µM*	-62%
CCn1cc(CNC(=O)c2ccc(Cl)c([N+](=O)[O-])c2)c(C)n1	-3%	3%	1.8%	-10%	?	19%	-20%	3%
COC(=O)c1cn(NC(=O)Cc2ccc(Cl)cc2)c(=O)c2ccccc12	9%	-11%	-6.8%	16%	-4%	8%	-23%	-6%
Cc1ccc(C)c2nc(Cl)c(C#N)cc12	nt	11%[46.1 µM]	nt	-12%	0%	-19%	-7%	5%
CC(C)C(OC(=O)CCC(=O)Nc1nccs1)C(=O)NC1CCCCC1 (stereo not given)	nt	24%[46.1 µM]	nt	1%	-1%	12%	-18%	-7%
CCc1nnc(NC(=O)C2CCCN2S(=O)(=O)c2ccccc2)s1 (stereo not given)	-1%	9%	-1.0%	3%	?	-12%	nt	-20%
CC(=O)c1ccc(N(C(=O)CNC(=O)c2ccco2)C(C(=O)NCC2CCCO2)c2ccccc2)cc1 (stereo not given)	nt	4%[46.1 µM]	nt	0%	-3%	3%	5%	-4%
COc1ccc(C(=O)NC(=S)Nc2ccccc2N2CCN(S(C)(=O)=O)CC2)cc1OC	?	?	-1.1%	9%	5%	?	-29%	9%
Cc1ccc(Cn2cccc(C(=O)Nc3nnc(C)s3)c2=O)cc1	3%	nt	-1.1%	nt	nt	5%[46.1 µM]	-17%	nt
Cc1cc(NC(=O)COC(=O)c2cccc(S(=O)(=O)N(C)C3CCCCC3)c2)no1	nt	7%[46.1 µM]	nt	-1%	-1%	-15%[46.1 µM]	2%	-60%
O=C1CN(C(=O)CSc2nnc(-c3ccccc3)n2Cc2ccc3c(c2)OCO3)c2ccccc2N1	13µM*	-1%	28µM*	1%	3%	1%	-8%	-10%
COc1ccc(Cl)cc1NC(=O)CN(c1cccc(C)c1C)S(=O)(=O)c1ccccc1	-26%	-24%[46.1 µM]	-3.8%	nt	nt	3%[46.1 µM]	-16%	nt
CC(=O)Nc1ccc(NC(=O)CCCc2ccccc2)cc1	nt	16%	nt	-15%	8%	-1%	41%[activator]	10%
O=C(NC1CCSC1=O)c1ccccc1 (stereo not given)	-1%	?	1.7%	30%	0%	-3%	-8%	7%
COc1ccc2c(C)cc(N3CCCCCC3)nc2c1	nt	?	nt	-29%	-1%	?	-22%	-5%
CCC(=O)n1nc(-c2ccccc2)nc1SCC(=O)Nc1ccc(C)cc1	-18%	2%	-0.9%	4%	-3%	-5%	12%	-12%
Cc1ccc(CNC(=O)c2ccc(N3CCC4(CC3)CC(c3ccccc3)=NO4)c(NC(=O)c3ccc(Br)cc3)c2)cc1	nt	nt	nt	0%	2%	nt	-9%	24%
CCOc1ccccc1NC(=O)NNC(=O)c1ccc2ccccc2c1	nt	?	nt	-7%	-1%	?	8%	1%
Cc1cc(C)n(C(=O)c2ccc(NC(=O)C3CC3)cc2)n1	5%	nt	0.2%	1%	10%	nt	55%[activator]	-22%
Cc1nc2ccccc2nc(C)c1=NO	-13%	-12%	1.8%	-17%	-13%	25%	51%[activator]	-48%
CC(N)(C(=O)O)c1cccc(OCc2cccc(Cl)c2)c1 (stereo not given)	nt	nt	nt	1%	3%	nt	3%	-1%
O=C(CN1CCOc2ccccc21)NC1CCN(Cc2ccccc2)CC1	-7%	nt	4.7%	-1%	-1%	nt	0%	?
C=CCSc1nnc(NC(=O)COc2ccccc2)s1	nt	nt	nt	-13%	3%	nt	16%	-4%
CCCS(=O)(=O)N1CCCC(C(=O)NCCN(CC)c2ccccc2)C1 (stereo not given)	11%	-10%	1.5%	-6%	-1%	-13%	-13%	2%
CCCn1c(N)c(N(CCOC)C(=O)c2cc(S(=O)(=O)N3CCCCCC3)ccc2OC)c(=O)[nH]c1=O	nt	-1%	nt	0%	-5%	10%	2%	0%
CC(C)CCn1c(=O)c2sccc2n2c(CCCC(=O)NCCc3ccccc3)nnc12	?	nt	-8.6%	nt	nt	-25%[46.1 µM]	8%	nt
O=C(Nc1ccccc1)c1ccc(S(=O)(=O)NCC2CCCO2)cc1 (stereo not given)	-3%	-7%	1.0%	-19%	-1%	15%	nt	-9%
CCN(CC)CCCNC(=O)CNC(=O)c1nn(-c2ccc(OC)cc2)c(=O)c2ccccc12	nt	-3%[46.1 µM]	nt	19%	4%	?	0%	nt
COC(=O)c1sccc1NC(=O)c1ccccc1C(=O)O	nt	8%[46.1 µM]	nt	5%	nt	-1%	12%	nt
COC(=O)c1cc2occc2n1CC(=O)Nc1ccc(C)cc1C	-6%	4%	-3.4%	-5%	6%	-1%	-11%	3%
O=C(Nc1cccc(F)c1)C1CCN(S(=O)(=O)c2ccc3[nH]c4c(c3c2)CCCCC4)CC1	16µM*	nt	1.0%	nt	nt	?	0%	nt
O=C(c1cccc(S(=O)(=O)N2CCCCC2)c1)N1CCN(c2ccccc2)CC1	nt	-16%	nt	0%	-1%	15%	-22%	2%
CCN(CC)C(=O)CCS(=O)(=O)c1cccc2nonc12	nt	-15%[46.1 µM]	nt	5%	4%	nt	-9%	nt
O=C(CN(Cc1ccc(F)cc1)C(=O)CCC(=O)Nc1nccs1)NCc1ccccc1	nt	?	nt	-19%	3%	nt	1%	6%
CN1CCCC(OC(=O)c2cc(F)c(F)c(F)c2F)C1 (stereo not given)	nt	-2%	nt	1%	1%	2%	-20%	5%
O=C(O)c1cc([N+](=O)[O-])ccc1C(=O)Nc1ccccc1	-3%	6%	-0.2%	7%	3%	-16%	15%	2%
Cc1ccccc1OCc1nc2ccccc2n1C	nt	nt	nt	-27%	-13%	nt	52%[activator]	-74%
CCCc1cc(C(=O)Nc2ccc(C(C)=O)cc2)no1	8%	nt	3.2%	-20%	-2%	nt	35%[activator]	?
CCCOC(=O)c1c(C)oc2c1cc(NS(=O)(=O)c1ccc(OCC)cc1)c1ccccc12	-8%	?	-2.1%	nt	nt	?	7%	nt
O=S(=O)(c1ccccc1)c1nc(-c2ccco2)oc1NCCCn1ccnc1	-4%	12%	3.5%	-4%	8%	9%	10%	-10%
CSc1ncccc1C(=O)NC1CCCc2c1cnn2-c1ccc(C)c(C)c1 (stereo not given)	nt	?	nt	-10%	0%	0%	28µM*	15%
COc1ccccc1C1CCN(C(=O)c2cnn(-c3ccccc3)c2C)CC1	nt	nt	nt	1%	-3%	nt	40µM*	-8%
CSc1oc(-c2ccccc2)nc1C(N)=O	15%	1%	1.8%	-3%	-3%	2%	nt	-7%
Cc1ccc(C(=O)Nc2cccc(C(=O)N3CCOCC3)c2)cc1	-3%	2%	-3.2%	1%[3.69 µM]	-2%	-6%	-2%	2%
O=C(NC1CC1)c1cccc(NC(=O)c2cc(S(=O)(=O)N3CCOCC3)ccc2Cl)c1	nt	-19%[46.1 µM]	nt	17%	2%	9%	-20%	nt
CC(C)C12CN3CC(C(C)C)(CN(C1)C3c1ccc([N+](=O)[O-])o1)C2=O (stereo not given)	nt	-1%[46.1 µM]	nt	6%	-4%	0%	13%	3%
CC(=O)NCCn1c(SCC(=O)NCCC2=CCCCC2)nc2ccccc2c1=O	16%	-22%	5.1%	-2%[3.69 µM]	-4%	2%	-16%	-4%
COCCn1c(C(=O)N2CCCC2)cc2c1C[C@H]1CN(C(=O)c3ccccc3)[C@@](Cc3ccc(F)cc3)(C(=O)OC)[C@@H]21	?	?	-5.3%&-9.1%	3%	14%	-1%	0%	-28%
O=C(O)c1ccc(NC(=O)c2ccc(Br)c(S(=O)(=O)N3CCCC3)c2)cc1	2%	nt	-2.4%	nt	nt	-1%[46.1 µM]	-1%	nt
Cc1sc(NC(=O)c2ccccc2)c(C(=O)NC(C)C)c1C	-5%	1%	3.6%	-3%	?	-12%	nt	-2%
O=C(Nc1cccc(C(F)(F)F)c1)N1CCC(c2nc(-c3ccc(F)cc3)no2)CC1	-2%	?	-3.3%	-9%	-9%	23%[14.3 µM]	?	-104%
